# Mtb betalactam: beta-lactam sensitization of Mtb H37Rv, H37Rv; M. tuberculosis H37Rv growth with meropenem, percent inhibition; hits of this screen are not shown here; inhibition, % at 25 µM; actives 0.27% (n = 330,000); AID 434955, 2010;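 active = about 74% or more and at least 40 points above the plate without the antibiotic, then above 30% in a dose series; inconclusive = first-round hits that could not be retested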;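 note: growth measured after seven days incubation then overnight dye step; 0% = bacteria only wells and 100% = bacteria with antibiotic; twin plates without the antibiotic show which effects depend on it; some results filed as inactive read as strong as hits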
# Numbers without * were called inactive; u = inconclusive. A portion of the library; the hit share may differ from the screen's.
no.	SMILES	Mtb betalactam
1	CC(=O)C[C@H](O)CC(=O)[C@@H]1OC(=O)CCCCCCc2ccccc21	-4
2	Cc1ccc(NC(=O)CN(C)CCOc2ccccc2)c([N+](=O)[O-])c1	1
3	Cc1nc2scc(C)n2c(=O)c1S(=O)(=O)Nc1ccc(F)cc1	-2
4	Cc1ccccc1C(=O)N1CCC(C(=O)Nc2cccc(S(=O)(=O)N3CCCCC3)c2)CC1	-7
5	Cn1cnnc1SCC(=O)NC(=O)NCc1ccccc1	2
6	COc1cc(OC)cc(C(=O)Nc2ccc(N3CCOCC3)cc2N2CCOCC2)c1	-1
7	CC(OC(=O)c1ccc(NC(N)=O)cc1)C(=O)Nc1ccc2c(c1)OCCO2 (stereo not drawn)	5
8	Cc1ccc(S(=O)(=O)c2nc(-c3ccccc3Cl)oc2N(C)C2CCN(C)CC2)cc1	22
9	COc1ccc(N(CC(=O)NCCSCc2ccccc2C)S(=O)(=O)c2ccccc2)cc1	u
10	O=C1CCN(Cc2ccccc2)S(=O)(=O)c2c(F)cc(F)cc21	-3
11	N#Cc1ccc(NCC(=O)Nc2ccc(S(=O)(=O)N3CCCCC3)cc2)cc1	88
12	CC(=O)N1CC(C(=O)Nc2ccc3c(c2)OCO3)Oc2ccccc21 (stereo not drawn)	-2
13	O=C1CC/C=C\C[C@@H](CC(=O)N(CCO)Cc2ccccc2)C(=O)NCCO1	-7
14	CCCNC(=O)N1[C@H]2CC[C@@H]1C(C(=O)OC)=C(c1ccc(F)cc1OCc1ccccc1)C2	3
15	Cc1ccc(-n2nnnc2SCC(=O)c2c(N)n(C3CC3)c(=O)[nH]c2=O)cc1C	12
16	O=C(Nc1cccc(Cl)c1)c1nc[nH]c1C(=O)N1CCc2ccccc2C1	16
17	Cc1ccc(S(=O)(=O)N2CCOCC2)cc1C(=O)OCC(=O)NC1CCCC1	-2
18	Cc1cccc(C(=O)OCC(=O)Nc2ccc3c(c2)OCCO3)c1O	-2
19	C=CC[C@H](CC(=O)N[C@H](CO)Cc1ccccc1)C(=O)N[C@H](COC(=O)[C@H](CC=C)CC(=O)OC(C)(C)C)Cc1c[nH]c2ccccc12	1
20	Cc1cc(C(=O)COC(=O)C2=COCCO2)c(C)n1-c1ccccc1	69

# Molecules above that contain two or more sulfur atoms (two):
no.	SMILES	Mtb betalactam
3	Cc1nc2scc(C)n2c(=O)c1S(=O)(=O)Nc1ccc(F)cc1	-2
9	COc1ccc(N(CC(=O)NCCSCc2ccccc2C)S(=O)(=O)c2ccccc2)cc1	u

# Continued:
no.	SMILES	Mtb betalactam
21	CCCCn1nc(C(=O)Nc2ccc3c(c2)OCO3)c2ccccc2c1=O	7
22	CCCCCC(N)=O	3
23	COc1ccc(NC(=O)/C=C/c2cccc(C(F)(F)F)c2)cn1	1
24	O=S1(=O)N(CCN2CC=C(c3c[nH]c4cc(F)ccc34)CC2)c2cccc3c2N1CCC3	99
25	CCNC(=O)N(C)C[C@H]1N[C@@](CC)(C(=O)OC)[C@H]2C(=O)N(Cc3ccccc3)C(=O)[C@@H]12	5
26	COC(=O)C1=C(c2ccc(OC)c(OC)c2)C[C@@H]2CC[C@H]1N2C(=O)NCc1cccc2ccccc12	2
27	CN(CC(=O)N1CCN(Cc2ccccc2)CC1)C(=O)Cc1ccc(Cl)c(Cl)c1	2
28	CCN(C(=O)COC(=O)c1cc([N+](=O)[O-])ccc1N1CCOCC1)c1ccccc1	0
29	COC(=O)C1=C(c2ccc(F)cc2OCc2ccccc2)C[C@@H]2CC[C@H]1N2C(=O)NCc1cccc(F)c1	2
30	COC(=O)[C@H](CCSC)NC(=O)Cn1ccc(N)nc1=O	-9
31	COc1ccc(S(=O)(=O)N2CCOCC2)cc1NC(=O)COc1ccc(C)cc1	-8
32	CC(OC(=O)c1c(F)cccc1F)C(=O)NCCC1=CCCCC1 (stereo not drawn)	-5
33	N#CCCN(C(=O)COC(=O)CCC(=O)c1ccc(F)cc1)c1ccccc1	-7
34	Cc1cc(Br)ccc1S(=O)(=O)NCc1ccccc1	10
35	CC(C)(C)OC(=O)C[C@@H]1C/C=C\C[C@@H](CC(=O)N[C@@H](CO)Cc2ccccc2)C(=O)NCCOC1=O	-5
36	CC(C)CC(OC(=O)c1nsc(Cl)c1Cl)C(=O)NC1CCCC1 (stereo not drawn)	3
37	Cc1csc(SCC(=O)Nc2cc(C(N)=O)cc(C(N)=O)c2)n1	-2
38	O=C(N[C@@H](Cc1ccccc1)C(=O)N1CCN(S(=O)(=O)c2ccccc2F)CC1)c1ccco1	-6
39	COC(=O)C1=C(c2ccc3ccccc3c2)C[C@@H]2CC[C@H]1N2C(=O)N1CCCCC1	8
40	COc1ccc(NS(=O)(=O)c2ccc(O)c([N+](=O)[O-])c2)cc1S(=O)(=O)N1CCCCC1	-7

# Fetched one by one from the list above (5):
no.	SMILES	Mtb betalactam
33	N#CCCN(C(=O)COC(=O)CCC(=O)c1ccc(F)cc1)c1ccccc1	-7
21	CCCCn1nc(C(=O)Nc2ccc3c(c2)OCO3)c2ccccc2c1=O	7
35	CC(C)(C)OC(=O)C[C@@H]1C/C=C\C[C@@H](CC(=O)N[C@@H](CO)Cc2ccccc2)C(=O)NCCOC1=O	-5
11	N#Cc1ccc(NCC(=O)Nc2ccc(S(=O)(=O)N3CCCCC3)cc2)cc1	88
9	COc1ccc(N(CC(=O)NCCSCc2ccccc2C)S(=O)(=O)c2ccccc2)cc1	u

# Further entries follow.
no.	SMILES	Mtb betalactam
41	COc1ccc(NC(=O)COc2ccc(C)nc2[N+](=O)[O-])cc1S(N)(=O)=O	-3
42	O=S(=O)(Nc1ccccc1F)c1ccc(Cl)nc1	-6
43	Cc1cccc(NC(=O)C(C)Oc2ccc(C)nc2[N+](=O)[O-])c1 (stereo not drawn)	-6
44	CN(C)S(=O)(=O)c1ccc(N2CCCC2)c(C(=O)NNC(=O)c2ccccc2)c1	-7
45	COc1ccc(CN(C)C(=O)Cn2ccc(NC(=O)OCc3ccccc3)nc2=O)cc1OC	-6
46	C/C=C(/C)C(=O)O[C@@H]1Cc2c(ccc3ccc(=O)oc23)OC1(C)C	-1
47	CCc1ccc(C(=O)OCC(=O)N(CC)c2c(N)n(Cc3ccccc3)c(=O)[nH]c2=O)cc1	-1
48	CN(CC(=O)NCCc1ccc(S(N)(=O)=O)cc1)CC(=O)Nc1ccc(F)c(F)c1F	-3
49	O=C(COC(=O)Cc1c(Cl)cccc1Cl)NC1CCCC1	-3
50	O=C1c2ccccc2NC(c2ccc(-c3cccc(F)c3)o2)N1O (stereo not drawn)	-2
51	COc1ccccc1NC(=O)c1ccc(Br)c(S(=O)(=O)N2CCCC2)c1	u
52	CCOC(=O)c1c(NC(=O)COC(=O)/C=C/c2ccccc2)sc(C(=O)NC)c1C	-5
53	COc1ccc([C@H]2CC(=O)C=C(c3ccc(C)cc3)C2)cc1	40
54	CC(=O)c1ccccc1NS(=O)(=O)c1cccc2nsnc12	-6
55	Cc1ccccc1-c1cc(C(=O)NCc2ccc3c(c2)OCO3)nn1CC1CC(c2cccc([N+](=O)[O-])c2)=NO1 (stereo not drawn)	1
56	O=C(Nc1ncn[nH]1)c1cccc(F)c1	-3
57	COc1cccc([C@@H]2CC=C(C(=O)O)[C@H](c3ccc(F)cc3)N2S(=O)(=O)c2ccc(C)cc2)c1	-5
58	O=C(Nc1cccnc1)c1ccc([N+](=O)[O-])s1	99
59	Cc1ccc(C(C)C)c(OCCCCN2CCNCC2)c1	-7
60	COc1cc2sc(-c3ccc(S(C)(=O)=O)cc3)c(-c3ccc4c(c3)OCO4)c2cc1OC	-3
61	CCOc1cc(N2CCOCC2)c(OCC)cc1NC(=O)Cn1cnnn1	-4
62	CC(C)(C)OC(=O)N1CCN(C(=O)c2[nH]cnc2C(=O)Nc2ccon2)CC1	-2
63	Cc1ccc(C(=O)NCC(=O)N2CCCCCCC2)cc1C	-12
64	O=C(OCC(=O)N1CCCCCC1)c1cccnc1Cl	5
65	COc1ccc(N2CC(C(=O)N(CC(C)C)c3c(N)n(Cc4ccccc4)c(=O)[nH]c3=O)CC2=O)c(OC)c1 (stereo not drawn)	-3
66	COc1ccccc1OCCOc1ccc(/C=C2\C(=N)N3N=C(C)SC3=NC2=O)cc1	-2
67	O=C(CSc1nnc(-c2ccccc2F)o1)Nc1ccc(N2CCOCC2)cc1	-5
68	O=C(CCc1c[nH]c2ccccc12)NN1C(=O)NC2(CCCCC2)C1=O	-9
69	O=C(Nc1ccc(OC(F)(F)F)cc1)c1ccc2nc[nH]c2c1	11
70	Cc1cccc(NC(=O)c2nc[nH]c2C(=O)NCCCNC(=O)c2[nH]cnc2C(=O)Nc2cccc(C)c2)c1	5
71	Cc1cccc(-n2c(SCC(=O)N3CCN(c4ccccn4)CC3)nnc2N2CCOCC2)c1	-14
72	Cc1ccccc1OCc1nnc(SCC(=O)NC2CCCCC2)o1	1
73	COc1cccc(-c2ncc3ccccc3c2COC(=O)N2CCOCC2)c1	1
74	COc1ccc(CCC(=O)OCC(=O)Nc2sccc2C(N)=O)cc1	6
75	Cc1ccc(C(=O)NCC(=O)Nc2ccc(S(=O)(=O)Nc3cc(C)nc(C)n3)cc2)cc1	26
76	Cn1c(SCC(=O)NC2CCS(=O)(=O)C2)nc2ccccc21 (stereo not drawn)	8
77	COc1cc(C#Cc2c(-c3cncn3C)n(C)c3ccc(-c4ccc(OC)nc4)cc23)cc(OC)c1	99
78	CCOc1ccc(NC(=O)CN(C)C(=O)C(C)N2C(=O)c3ccccc3C2=O)cc1OCC (stereo not drawn)	5
79	CC(CC(=O)OCC(=O)Nc1ccc2[nH]c(=O)[nH]c2c1)c1ccccc1 (stereo not drawn)	-2
80	Cc1ccc(OC(F)F)c(N2C(=O)C3C4CCC(O4)C3C2=O)c1 (stereo not drawn)	0
81	CCOc1cc(C(=O)NCc2ccccc2)ccc1OCC(=O)N1CCCCC1	2
82	Cc1cc(OCC(=O)N(Cc2ccco2)c2c(N)n(Cc3ccccc3)c(=O)[nH]c2=O)ccc1Cl	-3
83	O=C(CNc1ccc(Br)cc1)Nc1ccc(S(=O)(=O)N2CCCC2)cc1	0
84	O=C(OCC(=O)N1CCCc2ccccc21)c1ccccc1OC(F)F	-2
85	CN1CCN(S(=O)(=O)c2ccc(SCCOc3ccc(Cl)cc3)nc2)CC1	-4
86	O=C(COC(=O)C1COc2ccccc2O1)NC1CCCCC1 (stereo not drawn)	1
87	C=CCC[C@@H](Cc1ccc(F)cc1)C(=O)OC[C@@H](C)NC(=O)[C@H](CC=C)CC(=O)N(CCO)Cc1ccccc1	8
88	CCCCN(C(=O)c1cccs1)c1c(N)n(Cc2ccccc2)c(=O)[nH]c1=O	-2
89	COc1cc(OC)c(C(=O)OCC(=O)NC2CCCCCCC2)cc1OC	-8
90	Cn1c(-c2ccccc2)c(C#Cc2ccc(N)cc2)c2ccccc21	6

# Following part
no.	SMILES	Mtb betalactam
91	N#Cc1ccc(OCC(=O)NCCN2CCOCC2)cc1	-7
92	C=C(C)C(O)Cc1c(OC)ccc(C(=O)/C=C/c2ccc(O)cc2)c1O (stereo not drawn)	1
93	Cc1cc(NS(=O)(=O)c2ccc(NC(=O)COc3cc(C)c(Cl)c(C)c3)cc2)no1	-5
94	CCN(CC)S(=O)(=O)c1ccc(N2CCCC2)c(NC(=O)c2nn(C)c(=O)c3ccccc23)c1	6
95	O=[N+]([O-])c1cccc(-n2cc3ccc([N+](=O)[O-])cc3n2)c1	-3
96	O=C(Nc1ccc(S(=O)(=O)Nc2ncccn2)cc1)c1ccccc1Br	-10
97	Cc1cccc(S(=O)(=O)N2CCN(Cc3ccc4c(c3)OCO4)CC2)c1	-3
98	CCOc1ccc(S(=O)(=O)N2CCC(C(=O)OC(C)C(=O)NC3CCCCC3C)CC2)cc1 (stereo not drawn)	-9
99	O=C(Nc1ncnc2c1C(c1ccccc1)c1c(ccc3ccccc13)O2)c1ccccc1 (stereo not drawn)	5
100	C[C@@H]1CC[C@]2(C(=O)O[C@@H]3O[C@H](CO)[C@@H](O)[C@H](O)[C@H]3O)CC[C@]3(C)C(=CCC4[C@@]5(C)CC[C@H](O[C@@H]6OC[C@H](O)[C@H](O[C@@H]7O[C@H](CO)[C@@H](O)[C@H](O)[C@H]7O)[C@H]6O)C(C)(C)C5CC[C@]43C)C2[C@]1(C)O (stereo partly drawn)	4
101	Cn1nnnc1Sc1ncnc2scc(-c3ccsc3)c12	94
102	CCCOc1ccc(C(CC(=O)O)NC(=O)C(c2ccccc2)c2ccccc2)cc1 (stereo not drawn)	-1
103	COc1ccc(N(C)S(=O)(=O)c2cccc(C(=O)Nc3nc(C)c(C(C)=O)s3)c2)cc1	-4
104	CCC(NC(=O)CN1CCN(C(=O)c2cccs2)CC1)c1ccc(C)cc1 (stereo not drawn)	-4
105	COc1ccc(CCNC(=O)CSc2nc3[nH]c(=O)cc(O)c3s2)cc1	-8
106	CCOc1ccc(C(=O)NCCCCNC(=O)c2ccc(OCC)cc2)cc1	-2
107	O=C(COC(=O)C1CCN(S(=O)(=O)c2cccs2)CC1)Nc1ccc(F)cc1Cl	4
108	CNC[C@@H]1Oc2c(NS(C)(=O)=O)cccc2C(=O)N([C@@H](C)CO)C[C@H]1C	-7
109	CCOc1ccccc1N	7
110	O=C(NNC(=O)c1cccc(-n2cccc2)c1)c1ccccc1	4
111	COc1ccccc1OCC(=O)NNC(=O)CSC(=S)N1CCCC1	-12
112	COc1ccc(NC(=O)Nc2ccc3c(c2)C(=O)N([C@H](C)CO)C[C@H](C)[C@@H](CN(C)S(=O)(=O)c2cccs2)O3)cc1	0
113	O=C(COC(=O)c1ccc([N+](=O)[O-])o1)NCCc1ccccc1	83
114	Cc1cc(C)n(CC(O)COc2ccc(Cl)cc2Cl)n1 (stereo not drawn)	-11
115	COc1cccc(/C=C2\CCCCC2=O)c1	8
116	CCCn1c(SCC(=O)N(C2CCCCC2)C2CCS(=O)(=O)C2)n[nH]c1=O (stereo not drawn)	-1
117	COc1ccc(S(=O)(=O)N2CCOCC2)cc1NC(=O)CC1CCCC1	-12
118	CC(=O)c1c(C)[nH]c(C(=O)OCC(=O)NCc2cccs2)c1C	4
119	N#Cc1ccc(OCC(=O)N2CCN(C(=O)c3ccco3)CC2)cc1	-12
120	Cc1nn(C)c(C(=O)N/N=C/c2ccccn2)c1[N+](=O)[O-]	-3
